Assay outcomes deposited in PubChem by several laboratories.
RanGTP-Impb inh – inhibitors of RanGTP-importin-beta interaction, primary screen, biochemical, FRET, CFP-Ran, YFP-importin-beta, homogeneous; cell-free CFP-Ran/YFP-importin-beta FRET ratio; inhibition, % (test concentration not listed); 300,000 tested, 1.1% active; AID 2216;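 active = most replicates above 15%; inconclusive = exactly half above 15%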;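 also: 0% = DMSO wells and 100% = Ran loaded with GDP instead of GTP; wells of about 40 µL received 100 nL stock; the first replicate is given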
Beta cell apopt – beta cell apoptosis inhibition; INS-1E cytokine-induced death, ATP luminescence, 48 h; percent of positive-control rescue, neutral wells zero; protection from apoptosis, % (test concentration not listed); 300,000 tested, 0.8% active; AID 435005;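 active = all replicates at 75% or more, or half of them and the mean; inconclusive = half reach 75% but not the mean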;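 also: 0% = cytokine-treated negative control wells and 100% = positive control rescue; higher means more ATP so stronger rescue from cytokine killing; wells of about 40 µL received 100 nL stock; the first replicate is given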
AF4-AF9 inh – inhibitors of human MLL-AF4/AF9 interaction; P42568; AlphaScreen, biotin-AF4 peptide binding to FLAG-AF9; inhibition, % at 10 µM; 350,000 tested, 0.47% active; AID 651704;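 active = every replicate reaching a set inhibition limit, whatever the replicate mean, cut at about 25% in these data; inconclusive = mean inhibition reaches that limit but some replicates miss it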;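 also: 0% = plate neutral control median and 100% = total signal loss; the record names both 10 and 1 µM as test concentration; the first replicate is given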
Target sequence (P42568 whole entry, looked up): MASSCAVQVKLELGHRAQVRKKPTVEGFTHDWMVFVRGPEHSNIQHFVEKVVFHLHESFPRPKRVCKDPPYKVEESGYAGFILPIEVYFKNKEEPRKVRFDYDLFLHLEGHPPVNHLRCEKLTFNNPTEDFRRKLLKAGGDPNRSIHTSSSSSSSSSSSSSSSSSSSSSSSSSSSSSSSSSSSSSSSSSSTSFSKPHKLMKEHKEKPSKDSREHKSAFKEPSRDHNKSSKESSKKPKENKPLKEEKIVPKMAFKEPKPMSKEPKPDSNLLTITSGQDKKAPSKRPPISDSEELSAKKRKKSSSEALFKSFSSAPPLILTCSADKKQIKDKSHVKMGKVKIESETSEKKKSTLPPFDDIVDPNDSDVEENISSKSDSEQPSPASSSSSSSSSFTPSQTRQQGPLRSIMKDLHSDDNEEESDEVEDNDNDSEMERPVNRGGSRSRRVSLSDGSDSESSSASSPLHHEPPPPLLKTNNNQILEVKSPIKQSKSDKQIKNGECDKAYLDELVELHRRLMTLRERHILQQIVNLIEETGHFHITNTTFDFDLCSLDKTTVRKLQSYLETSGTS
Vif TR-FRET – HIV-1 Vif–A3G interaction blockers – biochemical, TR-FRET, GST-Vif 1-94, biotin-A3G peptide, dose response retest, primary screen (AID 1117319); TR-FRET GST-Vif / biotin-A3G peptide binding; higher % means a stronger effect; test concentration not given here; strong numbers were not always called active; one-dose inhibition, %; IC50 in µM for titrated hits; 260,000 tested, 0.57% active;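 active = above the screen mean plus three standard deviations and confirmed in dose response; inconclusive = results disagree or hit not tested in dose response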;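 also: Vif residues 1-94 fused to GST binding biotinylated APOBEC3G peptide 110-148; 0% = full assay without inhibitor and 100% = GST in place of GST-Vif; retest series ran down from 100 µM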
Bfl-1 A1 inh – inhibitors of the anti-apoptotic protein A1, read as caspase activation; MEF A1-2A-BIM cells, Caspase-Glo 3/7 luminescence, 3 h; percent of clofoctol response, vehicle zero; caspase activation, % (concentration not given with the values); 330,000 tested, 0.066% active; AID 2462;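 active = over half of replicate activation scores above 10%, or exactly half above 10 with the replicate mean above 10; inconclusive = replicate mean below 10 yet half the replicates above 10; inactive = over half of replicates below 10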;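 also: wells of about 30 µL received 50 nL stock; many hits fall short of the cut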
T cruzi repl – T. cruzi replication inhibition. inhibition, % (test concentration not listed). 300,000 tested, 1.4% active. T. cruzi beta-gal in NIH3T3, luminescence, 90 h. AID 1885;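 active = mean inhibition across valid replicates above about 55%, limit read from the data; inconclusive = mean below that limit but half or more replicates reach it; inactive = mean below it, under half of replicates reach it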;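 also: signal also drops with host cell toxicity which is not excluded here; 0% = plate median of DMSO wells and 100% = zero luminescence signal; higher percent means less beta-gal luminescence so fewer parasites; stock transfer was 50 nL into about 50 µL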
Calb FLC – C. albicans growth modulation with fluconazole. C. albicans CaCi-2 (fluconazole-resistant clinical isolate) + fluconazole, Alamar Blue growth, 48 h. growth inhibition, % (no concentration beside the values). 300,000 tested, 0.57% active;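 active = most replicates above 75%; inconclusive = exactly half above 75%; inactive = most below 75%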;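 also: all wells also contain fluconazole at 8 µg/ml as a sub-toxic cotreatment; 0% = median of DMSO wells and 100% = median of geldanamycin control wells; wells of about 8 µL received 7.5 nL stock; the first replicate is given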
LANA-H2B inh – blocks KSHV LANA binding to histone H2A/H2B; cell-free LANA-H2A/H2B peptide, fluorescence polarization; inhibition, % (test concentration not listed); 320,000 tested, 0.6% active; AID 2629; in the data active = inhibition mostly above about 10%, no sharp cut-off; inactive = mostly below about 6.7%;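 also: stock transfer was 7.5 nL into about 10 µL; 0% = median of vehicle wells and 100% = median of positive control wells; one replicate is shown; the record names a cut of 25% in any replicate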
* hit, by the source's call; ? = inconclusive; · = no result given; & = joins results of further samples.

(1) CCC(C)c1ccccc1OCC(=O)NN1C(=O)c2ccccc2C1=O (stereo not drawn)
(2) Cc1cc(SCC(=O)c2ccc3c(c2)OCO3)nc2ccccc12
(3) O=C(CN1C(=O)NC(c2ccccc2)(c2ccccc2)C1=O)NCc1ccco1
(4) C=CCN(CC=C)Cc1c(O)ccc2c(=O)c(-c3ccccc3)coc12
(5) CN(CC(=O)Nc1ccccc1Br)C(=O)c1cc(S(=O)(=O)N(C)C)ccc1N1CCCC1
(6) O=C(O)c1ccc(NC(CSCc2ccccc2F)C(=O)O)c([N+](=O)[O-])c1 (stereo not drawn)
(7) O=C(COc1ccccc1F)NCC(c1ccc(F)cc1)N1CCOCC1 (stereo not drawn)
(8) Cc1c(C)c2c(OCC(=O)NCc3ccncc3)cc3c(c2oc1=O)CCC(C)(C)O3

assay / entry	1	2	3	4	5	6	7	8
RanGTP-Impb inh	2.7	-2.3	·	-1.4	-1.6	1.2	·	-4.9
Beta cell apopt	-7	-3	-12	3	3	-7	-2	3
AF4-AF9 inh	-3.9	·	2.7	1.6	-1.6	4.9	0.5	-0.9
Vif TR-FRET	·	-13%	-8%	·	-4%	-6%	·	·
Bfl-1 A1 inh	0.7	-0.2	0.4	-0.1	-0.4	0.8	0.5	-0.8
T cruzi repl	-8	21	·	16	-2	-7	·	-3
Calb FLC	-4	-37	·	94*	-6	-3	·	-5
LANA-H2B inh	0.7	-2.6	8.1	-3.3	2.4	-5.1	2.1	4.9

Record cards, from the list above.
`CCC(C)c1ccccc1OCC(=O)NN1C(=O)c2ccccc2C1=O` (stereo not drawn) across the screens: RanGTP-Impb inh: 2.7; Beta cell apopt: -7; AF4-AF9 inh: -3.9; Vif TR-FRET: ·; Bfl-1 A1 inh: 0.7; T cruzi repl: -8; Calb FLC: -4; LANA-H2B inh: 0.7
`O=C(CN1C(=O)NC(c2ccccc2)(c2ccccc2)C1=O)NCc1ccco1` across the screens: RanGTP-Impb inh: ·; Beta cell apopt: -12; AF4-AF9 inh: 2.7; Vif TR-FRET: -8%; Bfl-1 A1 inh: 0.4; T cruzi repl: ·; Calb FLC: ·; LANA-H2B inh: 8.1

Following part:
(9) COc1cc(/C=C/c2c([N+](=O)[O-])c(=O)n(C)c(=O)n2C)cc(OC)c1OC
(10) CCC(C)(C)NC(=O)CN(C(=O)CNS(=O)(=O)c1ccc(F)cc1)c1ccc2c(c1)OCCO2
(11) Cc1cccc(S(=O)(=O)Nc2ccc(S(=O)(=O)Nc3nccs3)cc2)c1
(12) Cc1nnc(SCC(=O)NC(C)(C)C)n1NCc1c(F)cccc1Cl
(13) COc1ccc(OC)c(/C=N/NC(=O)c2ccc(Cn3cc([N+](=O)[O-])cn3)o2)c1
(14) O=C(CCC(=O)c1ccc(F)cc1)NN1C(=O)NC2(CCCCC2)C1=O
(15) CCC1CCCCN1C(=O)CSc1nc(C)cc(C)n1 (stereo not drawn)
(16) Cc1cccc(N(C(=O)c2ccco2)C(C(=O)NC2CCCC2)c2cccnc2)c1C (stereo not drawn)

assay / entry	9	10	11	12	13	14	15	16
RanGTP-Impb inh	3.1	2.0	·	-4.2	1.2	3.5	7.1	?
Beta cell apopt	-16	-5	-2	-1	2	·	-4	0
AF4-AF9 inh	-17	3.7	-2.5	0.8	2.0	-0.7	0.5	-0.8
Vif TR-FRET	-7%	2%	·	5%	-6%	6%	-8%	·
Bfl-1 A1 inh	0.1	0.5	0.9	-0.2	-0.1	0.1	0.8	1.2
T cruzi repl	-18	1	·	-15	-36	-1	2	-11
Calb FLC	-12	-10	·	-3	-12	-11	-10	12
LANA-H2B inh	0.2	-8.2	-0.7	-1.1	·	0.3	-0.8	-18

(17) Cc1csc(NC(=O)c2cc3c(s2)CCCCC3)n1
(18) COC(=O)c1ccc(Cl)c(NC(=O)CSc2nnc(-c3ccncc3)o2)c1
(19) COc1ccc(C2c3ccc4ccccc4c3Oc3ncn(CCCN(C)C)c(=N)c32)cc1 (stereo not drawn)
(20) COc1ccc(CC(=O)NCc2ccc3c(c2)OCO3)cc1
(21) COc1ccc(/C=C/C(=O)OC(C)C(=O)c2ccccc2)cc1OC (stereo not drawn)
(22) O=C1Nc2ccc(S(=O)(=O)N3CCOCC3)c3cccc1c23
(23) CCOC(=O)C[C@H]1c2ccc(C(F)(F)F)cc2S(=O)(=O)N1C(C)(C)C
(24) CCNC(=S)NNC(=O)c1cc(-c2cc(C)ccc2C)nc2ccccc12

assay / entry	17	18	19	20	21	22	23	24
RanGTP-Impb inh	-1.0	-1.4	-2.3	1.1	3.7	1.3	-2.7	-3.1
Beta cell apopt	26	2	112*	-2	-4	-1	3	5
AF4-AF9 inh	·	-0.6	33*	·	2.7	·	0.9	12
Vif TR-FRET	3%	·	-1%	-5%	0%	11%	·	8%
Bfl-1 A1 inh	-14	-0.4	0.8	0.2	-4.4	1.2	-0.5	0.2
T cruzi repl	22	-6	42	-15	-4	-7	8	-9
Calb FLC	-15	-3	23	-6	-1	17	0	46
LANA-H2B inh	-4.0	-1.0	0.9	-1.1	-5.5	-1.2	-5.0	1.3

(25) COc1ccc(-c2noc(CCC(=O)NCCCN3CCN(c4ccc(F)cc4)CC3)n2)cc1
(26) CCCCn1nc2cc(C(=O)NC[C@@H]3CCCO3)ccc2c1OCC
(27) COc1ccccc1N1CCN(C2CCN(S(=O)(=O)c3ccc(NC(C)=O)cc3)CC2)CC1
(28) CN(C)/C=C(\C#N)C(=O)Nc1ccc(O)cc1F
(29) CC1SC(c2ccccc2)N(CC(O)c2ccc([N+](=O)[O-])cc2)C1=O (stereo not drawn)
(30) Cc1cccc(OCCCC(=O)Nc2ccc(S(=O)(=O)Nc3onc(C)c3C)cc2)c1C
(31) O=c1cc(C(F)(F)F)[nH]c(=S)n1-c1ccccc1
(32) Cc1cccc(-n2c(O)c(C=Nc3ccccc3O)c3ccccc3c2=O)n1

assay / entry	25	26	27	28	29	30	31	32
RanGTP-Impb inh	0.6	-3.9	0.5	-4.9	-0.3	3.5	?	30*
Beta cell apopt	11	-3	-2	-2	-1	-2	1	3
AF4-AF9 inh	2.6	·	-1.2	-4.2	2.5	·	-1.7	-0.3
Vif TR-FRET	16%	-6%	2%	14%	1%	13%&9%	2%	-4%
Bfl-1 A1 inh	0.6	0.3	-0.4	0.6	0.0	-0.6	2.7	-0.7
T cruzi repl	10	-12	-10	-2	-13	-4	1	-2
Calb FLC	-19	-2	37	4	-12	0	18	3
LANA-H2B inh	9.7	2.1	2.0	1.6	-5.0	10	-3.9	-8.6

(33) COc1cccc(CNC(=O)Cn2ccc([N+](=O)[O-])n2)c1
(34) Cc1cc(=O)oc2cc(OC(=O)c3cncc(Br)c3)ccc12
(35) N#C/C(=C\c1cc2c(cc1Br)OCO2)c1ccc(C(=O)O)cc1
(36) COCc1nnc(NC(=O)CCS(=O)(=O)c2ccccc2)s1
(37) Cc1cc(C)n2ncc(S(=O)(=O)c3ccccc3)c2n1
(38) Cc1ccccc1CN1CCc2c(OCC(=O)N3CCCc4ccccc43)cccc2C1=O
(39) O=C(Nc1ccccc1C(F)(F)F)N1CCC(n2c(=O)[nH]c3ccccc32)CC1
(40) CCN1C2=C(C(=O)CCC2)C(c2ccc(O)c(Br)c2)C2=C1CCCC2=O

assay / entry	33	34	35	36	37	38	39	40
RanGTP-Impb inh	-4.6	1.0	4.0	1.1	-0.1	6.2	2.5	35*
Beta cell apopt	-1	0	-2	-24	0	3	-3	-2
AF4-AF9 inh	-1.5	-2.7	-5.5	-1.8	-1.1	·	·	·
Vif TR-FRET	·	·	5%	·	-1%	·	?	32%
Bfl-1 A1 inh	-0.3	0.1	0.2	0.0	-0.2	-0.4	0.8	1.2
T cruzi repl	3	-3	1	-8	-10	7	-5	-3
Calb FLC	1	21	13	32	0	23	3	-10
LANA-H2B inh	-6.8	2.1	2.6	4.0	0.8	-7.2	-3.4	2.2

Marked active in AF4-AF9 inh (from the list above):
cpd	canonical_smiles	RanGTP-Impb inh	AF4-AF9 inh	Vif TR-FRET	LANA-H2B inh
19	COc1ccc(C2c3ccc4ccccc4c3Oc3ncn(CCCN(C)C)c(=N)c32)cc1 (stereo not drawn)	-2.3	33*	-1%	0.9

Further entries
(41) COc1ccc(-n2c(N)c(C(=O)Nc3c(C)n(C)n(-c4ccccc4)c3=O)c3nc4ccccc4nc32)cc1
(42) CCOc1ncccc1C(=O)OC(C)C(=O)NC(=O)NC1CCCCC1 (stereo not drawn)
(43) Cc1ccc(/C=N/NC(=O)c2cc3c(ccc4ccccc43)o2)o1
(44) C=CCNC(=S)N1CCC(C(=O)c2ccc(Cl)cc2)CC1
(45) C/C(=N/NC(=O)CC(=O)N/N=C(\C)c1ccc([N+](=O)[O-])cc1)c1ccc([N+](=O)[O-])cc1
(46) O=C(CN1CCN(C(=O)c2ccco2)CC1)Nc1ccc(F)cc1F
(47) CN1CCN(CCCNC(=O)c2ccc(NC(=O)C3=CSCCO3)cc2)CC1
(48) COc1cccc(CNC(=O)c2ccccc2N)c1

assay / entry	41	42	43	44	45	46	47	48
RanGTP-Impb inh	1.5	1.7	1.7	0.0	0.8	2.0	4.2	2.9
Beta cell apopt	5	-12	·	4	8	-2	-11	3
AF4-AF9 inh	-7.3	-0.6	-0.9	-0.6	·	-1.1	-2.7	·
Vif TR-FRET	1%	4%	2%	·	-13%	-8%	·	6%
Bfl-1 A1 inh	2.0	-0.2	·	0.4	-0.2	0.4	1.6	-0.6
T cruzi repl	6	5	-1	-5	2	-4	22	4
Calb FLC	-2	-36	3	5	0	1	-4	3
LANA-H2B inh	-0.4	-1.9	·	3.3	2.1	3.1	2.1	-0.3

(49) Cc1ccc(NC(=O)CCCC(=O)O)c(Br)c1
(50) Cc1cc(C)n2nc(CC(=O)NC3CCCCCC3)nc2n1
(51) C/C(CC(=O)N1CCN(C=O)CC1)=N\NC(=O)c1cc2ccccc2cc1O
(52) Cc1cc(C)n(CC(=O)N2CCc3ccccc32)c(=O)c1C#N
(53) CCc1ccc(NC(=S)N(Cc2cccc(Br)c2)CC2CCC(C(=O)O)CC2)cc1 (stereo not drawn)
(54) Cc1ccc(/C=C2\NC(=S)NC2=O)cc1[N+](=O)[O-]

assay / entry	49	50	51	52	53	54
RanGTP-Impb inh	·	7.3	-2.6	-1.7	-1.3	0.4
Beta cell apopt	-7	-3	21	1	-1	6
AF4-AF9 inh	·	·	·	2.1	4.6	-1.5
Vif TR-FRET	15%	5%	·	-19%	·	-9%
Bfl-1 A1 inh	0.3	0.7	-0.3	0.5	0.4	-0.1
T cruzi repl	·	-2	-11	-4	6	-6
Calb FLC	·	3	68	-10	-1	-3
LANA-H2B inh	3.8	3.2	2.1	1.4	3.6	-2.3
